# Assay outcomes (PubChem)
# gsp ag = agonists of gsp mutant (McCune-Albright syndrome); gsp mutant cells, cAMP HTRF, 30 min; control for the full effect not named in the record; 340,000 tested, 0.13% active; Potency, µM (highest dose often 76.9 µM), without a hit: at the top dose activation (cAMP increase), most hits filed as activators; active = well fitted activation curve with a large enough effect; inconclusive = small, poorly fitted or top-dose-only effect, or another doubt; inactive = no such curve, though single readings can be large or run the other way; cell line not stated here;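 also: phosphodiesterase inhibitor Ro 20-1724 added with compounds to block cAMP breakdown; potency is read from the fitted curve at half-maximal effect; nearly all actives have a fitted effect of over 60% in size; about a fifth of the inactives were tested at one dose only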
#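 Cells in DMEM/10% FBS with G418 were pretreated with compounds in DMSO plus […] (300 uM stock) for 30 min at 37C. cAMP was measured by HTRF (cAMP-d2 plus anti-cAMP antibody-K) after 30 min at room temperature.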
# TRPML1 blocker = blocks the human TRPML1 channel; Q9GZU1; TRPML1-inducible cells, Ca2+ dye fluorescence, FDSS; active compounds read low; inhibition of EC80 agonist-evoked calcium signal; activity change, negative = inhibition, % (no concentration beside the values); 390,000 tested, 0.02% active; AID 624415; in the data active means activity change below about -50%; inconclusive means about -30% to -50%; inactive means above about -30%;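 also: stimulus is agonist 54-4 at its EC80 concentration; % is scaled to controls: 0 for no effect and ±100 for the full control effect; compound concentration not given in the record; the text of the record puts the active cut at -80%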
#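 Calcium fluorescence in TRPML1-DL cells induced overnight with Tet: a 110 s read after compound pin addition, then a 110 s antagonist read after challenge with 54-4 at 4 uM final (EC80).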
# Menin MLL FP FL = menin-MLL binding inhibition, fluorescein peptide. 290,000 tested, under 10 active. Fluorescence polarization, fluorescein-MLL peptide displacement from menin. FP activity change, % at 61.4 µM; inconclusive = falling polarisation curve, or a change in total fluorescence; inactive = total fluorescence flat and polarisation flat or rising; no compound was filed as active; the % refers to the polarisation; negative = inhibition;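 also: % of control where 0% means no effect; inhibitors lower the polarisation; unlabelled MLL peptide was the positive control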
# Sfp inh = Sfp phosphopantetheinyl transferase inhibition. AID 1490. Q9F4F7. Potency, µM, without a hit: max response, negative = inhibition, actives largely listed as inhibitors. Biochemical Sfp PPTase activity, qHTS. 310,000 tested, 3.5% active; active = well fitted inhibition curve with a large enough effect; inconclusive = small, poorly fitted or top-dose-only effect, or another doubt; inactive = no such curve, though single readings can be large or run the other way;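 also: the enzyme is Sfp with the accession as filed and its product quenches rhodamine fluorescence; potency is read from the fitted curve at half-maximal effect; 0% = enzyme reaction without inhibitor and -100% = no enzyme wells; top concentration of the series not given in the record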
#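 After 15 min at room temperature with compound, 15 nM Sfp received 5 uM rhodamine-CoA plus 12.5 uM BHQ-2-ybbR (50 mM Hepes pH 7.6, 10 mM MgCl2). Rate came from the fluorescence difference over 30 min, ex 525/em 598 nm.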
# gsp antagonist = antagonists of gsp mutant (McCune-Albright syndrome) | gsp-mutant cells, cAMP HTRF, 30 min; control for the full effect not named in the record | Potency, µM (top dose mostly 76.9 µM), without a hit: at the top dose activity change, negative = inhibition, actives largely listed as inhibitors | 340,000 tested, 0.4% active | AID 624288; active = falling curve of any shape with a large fitted effect; inconclusive = falling curve, mostly with a smaller effect; inactive = flat or rising curve; cell line not stated here;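 also: intracellular cAMP measured with PDE inhibitor Ro 20-1724 present during compound exposure; potency is read from the fitted curve at half-maximal effect; % is scaled to controls: 0 for no effect and ±100 for the full control effect; nearly all actives have a fitted effect of over 65% in size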
#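 G418-selected cells were plated in DMEM/10% FBS for 16-24 h at 37C, then treated with compounds plus the PDE inhibitor […] (300 uM solution added) for 30 min at 37C. Intracellular cAMP was measured by HTRF after 30 min lysis at room temperature.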
# TRPV1 potentiator = enhances activation of the human vanilloid receptor TRPV1. potentiation, % at 8.33 µM. 320,000 tested, 0.02% active. AID 540277. TRPV1-expressing cells, Fluo-8 calcium influx, capsaicin EC20 potentiation; host cell line not named in the record; control for the full effect not named in the record. Q8NER1; active means potentiation above 80%; inconclusive means 30% to 80%; inactive means below 30%; also: 0% is about no effect
# Target sequence (Q8NER1 whole entry, looked up): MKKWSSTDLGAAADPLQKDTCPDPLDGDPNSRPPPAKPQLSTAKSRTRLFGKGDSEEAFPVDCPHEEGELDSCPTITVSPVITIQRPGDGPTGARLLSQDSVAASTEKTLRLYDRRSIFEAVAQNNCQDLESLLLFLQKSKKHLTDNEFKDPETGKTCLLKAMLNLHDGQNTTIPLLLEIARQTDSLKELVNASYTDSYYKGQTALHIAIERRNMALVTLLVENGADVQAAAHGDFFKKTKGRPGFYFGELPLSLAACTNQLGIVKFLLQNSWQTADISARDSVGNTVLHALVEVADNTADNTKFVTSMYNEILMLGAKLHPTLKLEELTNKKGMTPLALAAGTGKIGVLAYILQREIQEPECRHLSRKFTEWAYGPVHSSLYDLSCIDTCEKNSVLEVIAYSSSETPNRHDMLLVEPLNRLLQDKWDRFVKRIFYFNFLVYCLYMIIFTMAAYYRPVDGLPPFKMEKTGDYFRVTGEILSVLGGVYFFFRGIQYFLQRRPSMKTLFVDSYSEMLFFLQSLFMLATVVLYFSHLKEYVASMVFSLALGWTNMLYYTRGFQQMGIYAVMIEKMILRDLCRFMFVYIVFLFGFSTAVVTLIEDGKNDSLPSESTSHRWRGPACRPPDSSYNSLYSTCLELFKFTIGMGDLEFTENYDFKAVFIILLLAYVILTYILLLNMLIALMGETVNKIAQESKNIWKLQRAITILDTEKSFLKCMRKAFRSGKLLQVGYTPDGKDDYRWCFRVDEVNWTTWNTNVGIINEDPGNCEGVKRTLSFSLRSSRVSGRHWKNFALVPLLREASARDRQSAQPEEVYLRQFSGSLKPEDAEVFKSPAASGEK
#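 TRPV1-expressing cells were cultured overnight at 35.5C and loaded with Fluo-8 calcium dye for 40 to 90 min at room temperature. After a 10 s baseline, compound was added and calcium influx was read kinetically for 3 min (ex 480/em 520 nm).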
# ClpP mod = qHTS Assay for Activators of ClpP; purified B. subtilis ClpP, FRET peptide cleavage, 20 min; Potency, µM (doses to about 57.5 µM), for inactives: at the highest dose activity change, negative = active; 340,000 tested, 1.9% active; active = well fitted falling curve with a large enough effect; inconclusive = small, poorly fitted or top-dose-only effect; inactive = no such curve, though single readings can be large or run the other way; also: potency is read from the fitted curve at half-maximal effect; the source files actives as falling curves though it sought activators and does not explain the sign; nearly all actives have a fitted effect of over 65% in size; many hits overshoot -100%
# Target sequence (P80244 whole entry, looked up): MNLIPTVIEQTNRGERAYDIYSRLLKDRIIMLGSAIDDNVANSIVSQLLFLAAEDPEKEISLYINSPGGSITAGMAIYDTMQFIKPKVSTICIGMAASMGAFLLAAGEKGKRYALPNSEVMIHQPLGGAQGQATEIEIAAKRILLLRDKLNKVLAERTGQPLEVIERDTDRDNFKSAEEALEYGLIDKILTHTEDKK
#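 FRET quenching reversal measured ClpP activation: 10 microg/mL B. subtilis ClpP at pH 8 with the FRET-FV decapeptide, read at 430 nm after 320 nm excitation. The 20-min minus 0-min signal was scaled between DMSO/no-enzyme wells and ADEP (5.8 microM final).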
# Starred values were filed as active, the others as inactive; u = inconclusive; x = not tested or not shown; & = joins results of further samples; [ ] = remark or other dose.
SMILES,gsp ag,TRPML1 blocker,Menin MLL FP FL,Sfp inh,gsp antagonist,TRPV1 potentiator,ClpP mod
O=c1ncn(C2CCCCC2)c(=O)[nH]1,2%,6,x,x,2%,x,x
COc1ccc(-c2cn3cccnc3n2)cc1NC(=O)c1cc(OC)c(OC)c(OC)c1,20%[15.4 µM],-16,7.2,11%,-2%,-8,x
O=C(NCc1nc(-c2ccccc2)no1)c1cccs1,-5%,20,0.1,2%,3%,26,1.7%
CCCc1cc(C(=O)N(C)CC(=O)Nc2ccc(OCC)c(OCC)c2)sc1C,-10%[15.4 µM],50,x,x,-13%,13,x
O=C(CSc1nnc(-c2cccs2)o1)N1CCOCC1,-28%,-15,-2.1,14%,11%,18,-2.2%
O=C1NCCCc2c1oc1cc(Br)c(O)c(Br)c21,2%,8,-0.7,-13%,5%,0,0.6%
O=C(C[C@@H]1C/C=C\C[C@H](Cc2ccc(F)cc2)C(=O)OC[C@@H]2CCCN2C1=O)N[C@H](CO)Cc1ccccc1,x,-1,x,x,-5%,x,-0.7%
COc1cc(NS(=O)(=O)c2ccc(NC(=S)NC(=O)/C=C/c3ccco3)cc2)ncn1,u,-18,7.1,-27%,u,5,x
O=C(COC(=O)c1cc(S(=O)(=O)N2CCOCC2)ccc1F)c1ccccc1,18%,-1,x,x,-3%,x,0.6%
CCOc1ccc(Br)cc1S(=O)(=O)NCc1ccc(S(N)(=O)=O)cc1,8%[15.4 µM],6,0.7,-10%,-13%,13,-3.2%
CCc1ccc2nc(Nc3nc(COC)cc(=O)[nH]3)nc(C)c2c1,-2%,5,1.4,12%,-1%,-2,-2.3%
O=C(NCc1nc(-c2ccccc2)no1)c1ccc2c(c1)OCO2,-5%,7,2.2,-2%,0%,-12,-5.2%

# Additional compounds.
SMILES,gsp ag,TRPML1 blocker,Menin MLL FP FL,Sfp inh,gsp antagonist,TRPV1 potentiator,ClpP mod
O=C(COC(=O)c1cnc(Cl)c(Cl)c1)c1ccc(F)cc1,-32%[inhibitor],5,x,x,-9%,x,1.2%
CN(C)c1cc[n+](CC(=O)Nc2ccc(Cl)c([N+](=O)[O-])c2)cc1,-43%[inhibitor],-11,0.4,3%,13%,12,x
COC(=O)c1ccccc1NC(=O)COC(=O)CSCC(=O)N1CCOCC1,15%,-6,1.2,6%,-8%,9,-14%
O=C(OCc1cn([C@H]2CN(C(=O)C3CCCCC3)[C@@H](c3ccc(Cl)cc3)C[C@@H]2O)nn1)c1ccccc1,-92%[inhibitor],6,x,x,x,x,1.7%
CC(C)c1nnc(SCC(=O)NCc2ccc3c(c2)OCO3)n1C,-37%[inhibitor],-2,-1.2,11%,12%,6,0.9%
CCCN1CCC(=O)N(C(CSc2ccc(C)cc2)CC(C)C)CC1 (centres undefined),x,20,0.9,1%,x,x,x
COc1ccc(NCC(=O)Nc2ccccc2C#N)cc1Cl,-2%,5,-0.9,3%,-1%,-4,1.1%
CCOc1ccc(N2CC(C(=O)NC3CCCC3)CC2=O)cc1 (centres undefined),-31%[inhibitor],-20,2.5,12%,3%,-9,x
CCCc1c(O)c2ccccc2n(-c2ccccc2)c1=O,8%,-5,0.1,-1%,-2%,x,5.6µM*
CCCNC(=O)C(Cc1ccc(I)cc1)NC(=O)c1ccc2ccccc2n1 (centres undefined),x,1,x,x,3%,10,-5.0%
COc1ccc2c(C)c(C(=O)N3CCN(Cc4ccccc4)CC3)oc2c1,6%,-10,-4.7,-9%,-14%,-3,-7.2%
O=C(c1cn(Cc2ccccc2)nc1-c1ccc(Cl)cc1)N1CCN(c2ccccn2)CC1,-3%,-1,x,x,-10%,-10,-9.5%

# Complete entries, quoted from the list:
# O=C1NCCCc2c1oc1cc(Br)c(O)c(Br)c21 across the screens: gsp ag: 2%; TRPML1 blocker: 8; Menin MLL FP FL: -0.7; Sfp inh: -13%; gsp antagonist: 5%; TRPV1 potentiator: 0; ClpP mod: 0.6%
# O=c1ncn(C2CCCCC2)c(=O)[nH]1 across the screens: gsp ag: 2%; TRPML1 blocker: 6; Menin MLL FP FL: x; Sfp inh: x; gsp antagonist: 2%; TRPV1 potentiator: x; ClpP mod: x
# O=C(c1cn(Cc2ccccc2)nc1-c1ccc(Cl)cc1)N1CCN(c2ccccn2)CC1 across the screens: gsp ag: -3%; TRPML1 blocker: -1; Menin MLL FP FL: x; Sfp inh: x; gsp antagonist: -10%; TRPV1 potentiator: -10; ClpP mod: -9.5%

# (further entries)
SMILES,gsp ag,TRPML1 blocker,Menin MLL FP FL,Sfp inh,gsp antagonist,TRPV1 potentiator,ClpP mod
O=C(CN1CCCCCC1)Nc1ccc(S(=O)(=O)N2CCOCC2)cc1,25%[15.4 µM],5,-0.9,12%,7%,-10,x
Cc1cc(N2CCOCC2)c(F)cc1C(=O)c1ccccc1,-7%,8,0.1,7%,-12%,-8,0.9%
O=c1cc(CN2CCN(Cc3ccccc3)CC2)c2cc(O)ccc2o1,-9%,8,0.0,3%,1%,-1,0.0%
Cc1ccccc1N(CC(=O)NCC1CCCO1)C(=O)CCC(=O)Nc1nccs1 (centres undefined),20%[15.4 µM],7,0.1,20%,10%,-3,-2.2%
Cc1cccc(C)c1OCc1nnc(SCC(=O)NCCc2ccccc2)o1,-21%,12,-0.9,6%,-5%,u,0.1%
COc1cccc(NC(=O)c2cccc(NC(=O)c3ccco3)c2)c1,-5%,-9,x,x,x,x,0.8%
COc1cccc(CNc2ccc([N+](=O)[O-])c(NCC(=O)O)n2)c1,-21%[15.4 µM],3,1.0,23%,x,7,x
Cc1noc(C)c1S(=O)(=O)N1CCCC(C(=O)NCCc2ccc(Cl)cc2)C1 (centres undefined),4%,-3,0.9,-14%,9%,x,0.8%
CNc1nc(N)c([N+](=O)[O-])c(NC2CCCCC2)n1,-2%[15.4 µM],-6,-5.5,8%,24%,0,-5.6%
CN1CCc2c(sc3c2c(=O)n(-c2ccccc2)c2nnc(SCc4ccc(Cl)cc4)n32)C1,0%,7,5.5,u,u,-2,u
COC(=O)c1sccc1NC(=O)CC1C(=O)NCCN1C(=O)Nc1cc(Cl)ccc1OC (centres undefined),6%,-1,6.2,10%,-8%,1,x
Cc1ccc(C(=O)CSc2nnc(-c3ccccc3)o2)cc1,-6%,14,1.2,-6%,6%,3,-8.8%

# Remaining list, next part:
SMILES,gsp ag,TRPML1 blocker,Menin MLL FP FL,Sfp inh,gsp antagonist,TRPV1 potentiator,ClpP mod
O=S(=O)(NCc1ccccc1Br)c1ccccc1Br,x,12,x,x,-5%,6,-9.4%&1.4%
O=C(O)c1cc(S(=O)(=O)N(Cc2ccccc2)c2ccccc2)ccc1Cl,-1%,-16,2.9,19%,-2%,3,0.4%
COc1ccccc1NC(=O)CSc1nnc(CNC(=O)COc2ccc(Cl)cc2)o1,-1%,11,-0.9,-3%,0%,13,-0.6%
CCC(C)(C)NC(=O)CN(C(=O)c1snc(C(N)=O)c1N)c1ccc(OC)c(OC)c1,-17%,0,0.4,29%,4%,-13,-0.5%
CCOC(=O)C1=C(c2ccccc2)O/C(=C(/C#N)C(F)(F)F)S1,x,x,2.5,-1%,x,8,x
COc1ccc(N(CC(=O)N2CCc3ccccc3C2)S(C)(=O)=O)cc1,5%,5,-1.3,5%,2%,-5,0.1%
O=c1oc(-c2ccc(Cl)c(Cl)c2)nn1-c1ccc(C(F)(F)F)cn1,14%[15.4 µM],-4,-2.2,10%,1%,x,x
CC1=NN(C(N)=S)C(=O)C1N=Nc1c(C)n(C)n(-c2ccccc2)c1=O (centres undefined),-3%[15.4 µM],19,x,x,-15%,x,-0.1%
COc1ccc(S(=O)(=O)N2CCc3ccccc32)cc1C(=O)N(CC(C)C)C1CCS(=O)(=O)C1 (centres undefined),-13%,2,x,x,-20%,2,-3.4%
O=C(c1ccc(-c2ccccc2)cc1)C1CCCN(C(=O)Cn2cncn2)C1 (centres undefined),-5%,-12,0.4,-4%,-9%,-5,x
CCC(C(=O)NCCN1CCOCC1)n1c2ccccc2c2nc(=O)cc(C)n21 (centres undefined),u,40,x,8%,-9%,16,-27%
COc1cc2c(cc1OC)C(c1cccc(Br)c1)NC(=O)C2 (centres undefined),7%,-1,-1.5,10%,-6%,-6,-1.7%

# Following part:
SMILES,gsp ag,TRPML1 blocker,Menin MLL FP FL,Sfp inh,gsp antagonist,TRPV1 potentiator,ClpP mod
O=C(Nc1ccccn1)c1cccc(S(=O)(=O)N2CCc3ccccc3C2)c1,-7%[15.4 µM],25,x,x,-17%,0,1.5%
COc1cc(/C=C2\SC(=S)N(CCC(=O)Nc3ccccc3O)C2=O)cc(OC)c1OC,-49%[inhibitor],27,6.8,13%,u,5,-0.8%
CCNC(=O)COC(=O)COc1ccc(Cl)cc1C,3%,1,-3.7,6%,-3%,9,-2.0%
COc1cccc(Nc2nc3ccccc3nc2NS(=O)(=O)c2cccs2)c1,13%,3,6.1,19%,14µM*,1,u
Cn1nc(C(F)(F)F)c(C(=O)Nc2ccc(F)cc2)c1Cl,17%[15.4 µM],3,3.2,15%,7%,3,x
CCOC(=O)N1CCN(C(=O)C2CCCN(c3ncnc4c3nc3n4CCCCC3)C2)CC1 (centres undefined),8%,4,3.3,29%,u,u,x
CCCCc1ccc(NC(=O)c2cnccn2)cc1,-19%[15.4 µM],36,0.3,10%,-2%,1,x
COc1ccc(CN2CCNC(=O)C2CC(=O)N(C)Cc2ccon2)cc1OC (centres undefined),-33%[inhibitor],29,-6.6,3%,-1%,4,-1.1%
O=C(O)c1ccc(S(=O)(=O)NCC2CCCCC2)cc1,24%[15.4 µM],-13,5.0,22%,10%,-1,x
C=CCn1ncc(OC)c(Cl)c1=O,1%,-3,-0.7,17%,14%,3,-2.1%
O=C(OCCN1C(=O)c2ccccc2C1=O)c1ccccc1,-4%[15.4 µM],-18,3.8,-9%,-7%,-34,x
